From PubChem
StopGo reporter: FMDV 2A StopGo reporter, luciferase signal; Potency, µM (doses to about 57.9 µM), inactives show at the top dose signal change, negative = less light; 1.2% of 410,000 active; human cells with a luciferase reporter of 2A StopGo recoding; control for the full effect not named in the record; active = well fitted falling curve with a large enough effect; inconclusive = small, poorly fitted or top-dose-only effect; inactive = no such curve, though single readings can be large or run the other way; tested in HEK293T cells; note: % is set by controls: 0 for no effect and ±100 for the full control effect; nearly all actives have a fitted effect of over 45% in size; luciferase light after 4 h
NS1 function inh: influenza NS1 inhibition. S. cerevisiae slowed by influenza A NS1, growth recovery by OD600. Potency, µM (titrated, usually from 46.1 µM), for inactives: at the highest dose activity, positive = more growth. 0.4% of 270,000 active. AID 2326; active means well fitted rising curve with a large enough effect; inconclusive means small, poorly fitted or top-dose-only effect; inactive means no such curve, though single readings can be large or run the other way; note: nearly all actives have a fitted effect of over 50% in size
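OD600 was taken as the measure of yeast growth restored by compound in an NS1-expressing S. cerevisiae strain. Cells had been washed out of glucose medium and diluted 1:100 into galactose -URA medium, pH 6.0.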
LASV entry inh: blocks Lassa virus binding to or entry into cells. Lassa virus pseudotype entry inhibition, cell reporter; control for the full effect not named in the record. Potency, µM (titrated, usually from 37.9 µM), for the others: at the top dose activity change, negative = inhibition, most hits filed as inhibitors. 1.2% of 300,000 active; active means well fitted inhibition curve with a large enough effect; inconclusive means small, poorly fitted or top-dose-only effect, or effect the other way; inactive means flat fitted curve, though single readings scatter; tested in HEK293 cells; note: % is set by controls: 0 for no effect and ±100 for the full control effect; nearly all actives have a fitted effect of over 50% in size; luciferase read-out
RE007 growth inh: less growth of the S. pombe RE007 Vpr strain; S. pombe RE007 Vpr strain, BacTiter-Glo ATP luminescence, 24 h; control for the full effect not named in the record; Potency, µM (top dose mostly 92.2 µM), inactives show top-dose activity change, negative = less growth; 0.21% of 360,000 active; active = well fitted falling curve with a large enough effect; inconclusive = small, poorly fitted or top-dose-only effect; inactive = no such curve, though single readings can be large or run the other way;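 note: % is set by controls: 0 for no effect and ±100 for the full control effect; nearly all actives have a fitted effect of over 50% in size; the assay follows cell death caused by Vpr and the record does not say whether a fall means rescue or toxicity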
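Fission yeast strain RE007, carrying one chromosomally integrated HIV-1 vpr copy, was seeded at OD 0.01 in PMG+AL medium with 23 nL pinned compound. After 24 h at 30 °C and 99% humidity, viability was read by BacTiter-Glo luminescence.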
MARV entry inh: Marburg virus entry inhibition; Marburg virus pseudotyped entry inhibition, cell reporter; control for the full effect not named in the record; about a third of the inactives were read at about 46 µM; Potency, µM (series often up to 37.8 µM), inactives show top-dose activity change, negative = inhibition, hits mostly inhibitors; 1.8% of 300,000 active; active = well fitted inhibition curve with a large enough effect; inconclusive = small, poorly fitted or top-dose-only effect, or effect the other way; inactive = flat fitted curve, though single readings scatter; tested in HEK293 cells; about a fifth of its hits are not listed in these tables; note: % is set by controls: 0 for no effect and ±100 for the full control effect; luciferase read-out
Cruzain Triton: cruzain (T. cruzi) inhibition with detergent; purified cruzain, Z-FR-AMC fluorescence, 0.01% Triton; Potency, µM, inactives show max response, negative = inhibition, most hits filed as inhibitors; 0.43% of 200,000 active;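 note: plate controls were neutral wells for no effect and buffer without enzyme for full effect; nearly all actives have a fitted effect of over 40% in size; top concentration of the series not given in the record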
Target sequence (P25779 123-467 limits assumed): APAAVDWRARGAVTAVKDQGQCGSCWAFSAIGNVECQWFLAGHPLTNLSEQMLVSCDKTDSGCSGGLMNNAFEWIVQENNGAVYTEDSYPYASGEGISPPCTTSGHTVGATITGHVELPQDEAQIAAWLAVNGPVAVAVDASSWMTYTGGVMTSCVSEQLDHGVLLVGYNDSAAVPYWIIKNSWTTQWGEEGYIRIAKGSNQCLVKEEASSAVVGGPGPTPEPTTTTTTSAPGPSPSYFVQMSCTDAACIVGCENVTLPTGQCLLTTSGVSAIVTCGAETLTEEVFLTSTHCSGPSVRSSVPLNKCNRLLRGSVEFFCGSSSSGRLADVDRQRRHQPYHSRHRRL
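In this qHTS format, compounds are incubated with 1.5 nM cruzain for 15 min at room temperature before 2 uM Z-FR-AMC is added. Release of AMC is followed at 360/450 nm, and progress is taken as the 60 s fluorescence difference.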
Cruzain noTriton: blocks cruzain activity in detergent-free assay. P25779. purified cruzain, Z-FR-AMC fluorescence, no detergent. Potency, µM, for inactives: max response, negative = inhibition, usual class: inhibitors. 2.3% of 200,000 active;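 note: plate controls were enzyme without inhibitor for no effect and buffer without enzyme for full effect; nearly all actives have a fitted effect of over 40% in size; top concentration of the series not given in the record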
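Purified cruzain at 1.5 nM, pre-incubated 15 min with compound at room temperature in 100 mM sodium acetate pH 5.5, 5 mM DTT, 0.00005% Triton X-100. Reaction started with 2 uM Z-FR-AMC; AMC fluorescence increase over 60 s gives rate.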
SARS PLpro yeast: blocks SARS-CoV papain-like protease in a yeast assay; Potency, µM (highest dose often 32.9 µM), inactives show top-dose activity, positive = growth rescue; S. cerevisiae expressing SARS-CoV PLpro, growth rescue; control for the full effect not named in the record; AID 485353; 0.19% of 330,000 active; active means well fitted rising curve with a large enough effect; inconclusive means small, poorly fitted or top-dose-only effect; inactive means no such curve, though single readings can be large or run the other way; note: 0% is about no effect; nearly all actives have a fitted effect of over 55% in size; growth read by luminescence after 48 h
* = called active by the depositor; ? = inconclusive; / = no result given; & = joins results of further samples; [ ] = another dose, or the depositor's remark. Unless noted, calls come from the whole dose curve; as a rule, active = well fitted curve in the direction sought with a large enough effect; inconclusive = small, poorly fitted or top-dose-only effect, or another doubt; inactive = no such curve, though single readings can be large; an effect the other way counts as inactive or inconclusive. Potency is the fitted concentration of half-maximal effect. No enrichment for hits. About 4.8% of those tested had a hit in this group.

SMILES	StopGo reporter	NS1 function inh	LASV entry inh	RE007 growth inh	MARV entry inh	Cruzain Triton	Cruzain noTriton	SARS PLpro yeast
COc1ccc(C2C(C(=O)N3CCN(c4ccccc4F)CC3)c3ccccc3C(=O)N2C)cc1 (stereo not given)	0%	-36%	-8%	16%	-10%&-10%	-1.6%	21%	-6%
CCn1c(C)cc2c(c1=O)C(c1ccccc1Br)C(C#N)=C(N)O2 (stereo not given)	-13%	4%	0%	10%	4%	1.3%	-3%	2%
Cc1cccc(NC(=O)C(=O)NCCc2sc(-c3ccccc3)nc2C)c1C	-8%	/	19%[46.1 µM]	/	/	-1.1%	-7%	/
COc1ccc([N+](=O)[O-])cc1NC(=O)C(C)NNC(=O)c1cccc([N+](=O)[O-])c1 (stereo not given)	?	/	-1%	6%	?	/	/	-3%
COc1ncnc(NS(=O)(=O)c2ccc(N)cc2)c1OC	0%	/	/	7%[18.4 µM]	/	1.5%	-4%	/
COc1ccc(CCNc2ncnc3sc(C)cc23)cc1OC	32µM*	-53%	?	-21%	?	/	/	-7%
COc1ccc(-c2nnc(SCc3nnc(-c4ccc(Cl)cc4)o3)n2-c2ccccc2)cc1	-14%	-51%	17%	0%	-22%&-22%	-1.3%	-27%	/
Cc1ccc(NC(=O)Cn2c(/C=C/c3ccccc3)nc3ccccc32)cc1C	11%	-6%	-17%	-5%	-29%	-12%	16µM*	-26%
CC(C)n1c(SCCCc2ccccc2)nc2c1c(=O)[nH]c(=O)n2C	?	-17%	4%	2%	-25%	-6.7%	2%	-21%
COc1ccc(C(=O)N2CCN(C)C(=O)[C@@H]2C)cc1OC1CCN(C(C)C)CC1	-12%	6%	20%	5%	?	/	/	3%
Cc1nn(CC(=O)Nc2ccc(F)cc2)c(=O)c2ccccc12	-17%	0%	/	4%	/	/	/	-1%
NC(=O)CSc1nnnn1-c1ccc2c(c1)OCCO2	1%	24%	15%	5%	-2%	1.1%	-11%	2%
CC1(C)CC2(CCO1)C(Nc1ccccc1)=NC(=S)N2c1ccccc1 (stereo not given)	-20%	5%	12%	14%	8%	/	/	-1%
Cc1nnc(SCC(=O)N2CCC(c3noc4ccc(F)cc34)CC2)s1	-22%	-18%	0%	-14%	5%	-2.8%	9%	0%
O=C(O)/C(=C\c1ccc(Cl)cc1)c1ccc(S(=O)(=O)N2CCCC2)s1	-17%	/	6%	10%	10%	/	/	-15%
O=C(c1ccco1)n1nc(-c2ccc(Cl)cc2)nc1NCc1ccccc1	13%	/	16%[46.1 µM]	/	?	-3.0%	15%	/
CCN(CC(=O)Nc1ccccc1OC)C(=O)CN1C(=O)NC2(CCCC2)C1=O	19%	/	-19%	-1%	-13%[46.1 µM]	/	/	/
CCOC(=O)c1cc(-c2ccccc2)n(CCC(=O)N2CCN(c3ccccc3OC)CC2)c1C	?	-12%	?	22%	?	-8.3%	?	-30%
CC1CCCCN1C(=O)CN1CCSc2ccccc21 (stereo not given)	-17%	/	-2%[46.1 µM]	/	/	-2.6%	-3%	/
COC(=O)c1ccccc1NC(=O)C(C)NS(=O)(=O)c1ccc(OC)cc1 (stereo not given)	-21%	21%	-2%	6%	?	-2.8%	3%	2%
Cc1nc([N+](=O)[O-])c(C(=O)OCc2ccccc2C#N)n1C	-11%	/	-3%[46.1 µM]	5%	0%[46.1 µM]	/	/	0%
Cc1ccc(S(=O)(=O)NCCCOC(=O)Nc2ccncc2)cc1	-14%	-1%	3%	5%	-22%	2.6%	-12%	1%
O=C(Nc1cccc(-c2cn3cccnc3n2)c1)c1cc(Br)ccc1Cl	-9%	/	-2%[46.1 µM]	/	/	-3.3%	9%	/
CCOc1ccc(NC(=O)c2ccc(NS(=O)(=O)c3cccc4cccnc34)cc2)cc1	9%	/	-5%[46.1 µM]	4%	8%[46.1 µM]	/	/	/
CN(C)CCN1C(=O)C(O)=C(C(=O)c2cc3ccccc3o2)C1c1ccccn1 (stereo not given)	/	16%	/	/	-1%	2.5%	-3%	6%

One compound at a time, from the list above.
`CCn1c(C)cc2c(c1=O)C(c1ccccc1Br)C(C#N)=C(N)O2` (stereo not given) in the list: StopGo reporter: -13%; NS1 function inh: 4%; LASV entry inh: 0%; RE007 growth inh: 10%; MARV entry inh: 4%; Cruzain Triton: 1.3%; Cruzain noTriton: -3%; SARS PLpro yeast: 2%
`Cc1nc([N+](=O)[O-])c(C(=O)OCc2ccccc2C#N)n1C` in the list: StopGo reporter: -11%; NS1 function inh: /; LASV entry inh: -3%[46.1 µM]; RE007 growth inh: 5%; MARV entry inh: 0%[46.1 µM]; Cruzain Triton: /; Cruzain noTriton: /; SARS PLpro yeast: 0%

(more compounds)
SMILES	StopGo reporter	NS1 function inh	LASV entry inh	RE007 growth inh	MARV entry inh	Cruzain Triton	Cruzain noTriton	SARS PLpro yeast
CCN(CC)S(=O)(=O)c1ccc(S(=O)(=O)Nc2ccc3c(c2)oc2ccccc23)cc1	13%	7%	-8%	-4%	?	-0.5%	-13%	-7%
Cc1ccccc1Cn1c(C)nc2ccccc21	?	1%	?	5%	?	/	/	10%
Cc1nc(NC(=O)CSc2nnc(Cn3nnc4ccccc43)n2C)sc1C	-10%	-4%	6%	-2%	?	-0.5%	1%	4%
CCOC(=O)c1ccccc1NC(=O)CSc1nc2[nH]ncc2c(=O)[nH]1	-20%	/	1%	6%	6%	/	/	/
CC(C)Oc1ccc(OCCn2c(S(=O)(=O)O)nc3c(N)ncnc32)cc1	-1%	3%	/	13%	/	/	/	-1%
N#Cc1c(/N=C/c2c(O)n(Cc3ccco3)c(=O)[nH]c2=O)sc2c1CCCC2	5%	-31%	-16%	-17%	-2%	-4.4%	-23%	24%
CC1(C)Cc2c(C#N)c(NCCCO)nc(-c3ccccc3)c2CO1	-22%	-36%	/	1%	/	-3.1%	2%	-28%
COc1cccc(CN2CC(C(=O)N(C)Cc3nc4ccc(F)cc4[nH]3)CCC2=O)c1 (stereo not given)	-5%	4%	/	-1%	/	/	/	2%
Cc1ccc(NC(=O)CCCn2c(=O)c3cccn3c3ccccc32)cc1C	-13%	/	-4%[46.1 µM]	/	/	-0.4%	20%	/
CCCCOc1ccc(CSCCNC(=S)Nc2ccccc2)cc1	0%	5%	?	-22%	-18%	-5.9%	6%	5%
COC(=O)N(NC(=O)C(O)(CCC(C)C)CCC(C)C)c1ccccc1	?	5%	-2%	3%	-28%	4.4%	6%	?
COC(=O)c1sc2ncccc2c1OCc1c(Cl)cccc1Cl	-19%	7%	19%	5%	-7%	-2.2%	-13%	-5%
COc1ccc(-n2nc(C(=O)NCC(=O)NCc3ccco3)c3ccccc3c2=O)cc1	-4%	-3%	-13%	-1%	6%	-1.0%	-4%	2%
O=C(c1ccncc1)c1ccc(NC(=O)c2cccs2)cc1	5%	/	11%	23%	5%[46.1 µM]	/	/	-6%
O=C(c1cccs1)N1CCc2c([nH]c3ccccc23)C1c1ccc(Cl)cc1 (stereo not given)	?	6%	?	3%	?	3.3%	?	-9%
Cc1ccc(S(=O)(=O)Nc2cccc(C(=O)NCc3cccnc3)c2)cc1F	-5%	/	?	-21%	-28%	/	/	-3%
Cc1cccc(N2C(=O)NC(=O)/C(=C\c3cnn(-c4ccccc4)c3)C2=O)c1	?	28%	8%	23%	-14%[46.1 µM]	3.3%	-2%	-2%
CN(C)CC(O)CN1C(=O)NC(C)(C)C1=O (stereo not given)	14%	4%	/	7%	/	/	/	0%
COc1ccc(N2CCN(CC(O)COCc3ccccc3)CC2)cc1 (stereo not given)	-10%	6%	4%[46.1 µM]	-12%	11%[46.1 µM]	/	/	-1%
COCC(=O)Nc1cc(Cl)c(OC)cc1OC	-10%	-14%	7%	6%	?	0.0%	1%	-8%
CCOC(=O)c1c(N)sc(C(N)=O)c1C	20%	1%	10%	18%	4%[46.1 µM]	5.2%	-7%	2%
COC(=O)COc1ccc(-c2ccccc2)cc1C=O	4%	/	27%	3%	-11%[46.1 µM]	/	/	-19%
CCn1c(CNc2ccc(OC)cc2)nnc1SCC(=O)N1CCCc2ccccc21	10%	1%	-3%	-13%	-12%	1.3%	2%	8%
Cc1cccc(C(=O)OCC(=O)NC(C)CCc2ccccc2)c1O (stereo not given)	-7%	-8%	29%[46.1 µM]	6%	1%[46.1 µM]	/	/	-3%
COC1C(C)=C(C)C(=O)N1Cc1ccc(F)cc1 (stereo not given)	-3%	14%	-1%[46.1 µM]	9%	-21%[46.1 µM]	/	/	?
(next part)
SMILES	StopGo reporter	NS1 function inh	LASV entry inh	RE007 growth inh	MARV entry inh	Cruzain Triton	Cruzain noTriton	SARS PLpro yeast
COc1ccccc1C(=O)COC(=O)Cc1ccccc1F	69%[activator]	/	1%	-16%	19%	/	/	-17%
Cc1nnc(-c2cnn(-c3ccccc3)c2N)n1Cc1ccccc1	24%	7%	-6%	15%	5%	6.4%	-9%	-5%
CC(C)C[C@@H](CO)N1CCN(C)CCC1=O	-11%	?	/	-7%	/	/	/	16%
Cn1c(C(N)=O)cnc1Sc1ncc(C(F)(F)F)cc1Cl	-6%	17%	0%	1%	-13%	0.0%	-2%	3%
Cc1ccccc1OCC(=O)NS(=O)(=O)c1ccc(Cl)cc1	-12%	-23%	4%	0%	30%	/	/	-2%
CC(C)(C)c1ccc(OCC(=O)Nc2ccc3c4c(cccc24)C(=O)NC3=O)cc1	-22%	1%	?	3%	?	/	/	1%
CCOC(=O)c1ccccc1NC(=O)COC(=O)CN1C(=O)C2CC=CCC2C1=O (stereo not given)	-4%	-18%	0%	-2%	12%	/	/	1%
Cc1ccc(NC(=O)CN2C(=O)NC3(CCCc4ccccc43)C2=O)c(Cl)c1 (stereo not given)	-12%	/	?	1%	?	/	/	1%
COc1ccc(C)cc1S(=O)(=O)NC(C)C(=O)Nc1ccc2c(c1)OCO2 (stereo not given)	50%[activator]	3%	/	-2%	13%[46.1 µM]	/	/	2%
COC(=O)c1c(NS(=O)(=O)Cc2ccccc2)sc2c1CCCC2	/	-2%	4%	-6%	2%	-6.8%	-6%	-26%
CCN(c1ccccc1)c1nc(=O)c2cccnc2s1	23%	-5%	/	0%	/	/	/	0%
